# Yeast UUG start = modulators of yeast start codon fidelity, primary screen, whole organism, S. cerevisiae, single point, plate reader; activity score, % at 18.7 µM; actives 0.13% (n = 350,000); AID 602363, 2012; S. cerevisiae UUG-firefly luciferase reporter, luminescence/redox ratio;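 active = replicate mean at a twofold rise or more, about +100% in these data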;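 also: firefly luciferase made from a UUG start codon reports start codon fidelity; reporter light over untreated wells divided by growth signal over untreated wells; some hits fall short of that in this replicate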
# CSC inhib = cancer stem cell viability inhibitors, primary screen, luminescence | cancer stem cell-like cells viability | inhibition, % at 7.5 µM | actives 1.1% (n = 300,000) | AID 2717, 2010;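 active = mean at 75% or more and at least half the replicates too; inconclusive = mean and replicates disagree; tested in HMLE shEcad cells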;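 also: 0% = median of negative and 100% = median of positive control wells; the first replicate is given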
# MT1-MMP act inh = blockers of MT1-MMP proenzyme processing, primary screen, HT1080 RFP-PRO-GFP cells, GFP/RFP fluorescence; actives 0.061% (n = 360,000); Matrix metalloproteinase-14 (Homo sapiens), P50281; GFP/RFP ratio fluorescence, overnight; percent of plate control window, DMSO zero; AID 651647, 2012; GFP/RFP ratio change, % at 20 µM;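 active = GFP/RFP ratio change of at least 30% with cell ATP level not reduced by more than half and red fluorescence within 50% of control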; also: strong numbers were not always called active
#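 Assay system – RFP-PRO-GFP reporter HT1080 cells · Compound dosing – single dose of 20 µM compound, 1% DMSO final · Incubation – overnight compound exposure at 37 °C · Measure – GFP/RFP fluorescence ratio · Benchmarks – DMSO wells and RFP-L50D-GFP cells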
# eIF4H FP inh = human eIF4H binding inhibitors, primary screen, translation initiation inhibitor project, biochemical, uHTS, fluorescence polarization; eIF4H fluorescence polarization binding assay; inhibition, % at 35 µM; actives 0.94% (n = 290,000); AID 2012, 2009;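 active = 50% or more with normal probe brightness, or confirmed in later tests; inconclusive = above 50% with abnormal brightness, or retests that disagree; inactive = below 50% or failed in later tests; about a fifth of its hits are not listed in these tables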;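 also: calls also rest on retests at 20 µM and on dose response follow-up; 0% = protein and probe with vehicle and 100% = probe without protein; strong numbers were not always called active; many hits fall short of the cut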
# Rce1 inh = yeast Rce1p protease inhibitors, primary screen, biochemical, fluorescence, cell-free homogeneous | AID 2563, 2010 | calls only | yeast membranes, quenched prenylated peptide cleavage fluorescence | CAAX prenyl protease 2 (Saccharomyces cerevisiae (strain ATCC 204508 / S288c)), Q03530 | actives 0.27% (n = 290,000);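 active = fall in fluorescence gain of 50% or more versus controls, with final raw signal at or below 3038400; inconclusive = same 50% fall but final raw signal above 3038400; inactive = fall in fluorescence gain under 50%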;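 also: plate controls were neutral control wells for no effect and wells lacking membranes for full effect; tested at 10 µM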
# Target sequence (Q03530 whole entry, looked up): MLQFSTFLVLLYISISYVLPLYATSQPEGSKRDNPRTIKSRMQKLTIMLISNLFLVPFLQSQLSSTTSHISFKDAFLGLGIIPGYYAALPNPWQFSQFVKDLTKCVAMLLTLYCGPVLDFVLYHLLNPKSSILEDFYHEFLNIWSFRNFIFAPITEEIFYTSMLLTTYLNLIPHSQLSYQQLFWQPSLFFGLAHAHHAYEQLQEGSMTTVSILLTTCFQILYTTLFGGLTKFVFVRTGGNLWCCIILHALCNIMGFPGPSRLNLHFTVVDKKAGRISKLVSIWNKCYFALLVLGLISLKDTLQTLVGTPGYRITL
# HIV Env fusion = inhibitors of HIV-1 Env-driven cell-cell fusion, primary screen, HeLa-JRFL effector, CEM21 target cells, luciferase; actives 1.1% (n = 360,000); inhibition, % at 12.3 µM;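 active = mean replicate inhibition score of at least 50 and every replicate individually at or above 50; inconclusive = only one of the two criteria met; inactive = mean below 50 and not all replicates reaching 50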;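 also: 0% = plate neutral controls and 100% = maraviroc near 300 nM; one replicate is shown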
# PABP FP inh = PABP poly(A) RNA binding inhibitors, primary screen, biochemical, fluorescence polarization, uHTS; Polyadenylate-binding protein 1 (Homo sapiens), P11940; actives 1% (n = 290,000); inhibition, % at 35 µM; AID 2014, 2009;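 active = 50% or more with normal probe brightness, or confirmed in later tests; inconclusive = above 50% with abnormal brightness, or retests that disagree; inactive = below 50% or failed in later tests; about a fifth of its hits are not listed in these tables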;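 also: calls also rest on retests at 20 µM and on dose response follow-up; controls were probe without protein and protein plus probe with vehicle; some compounds called inactive have numbers as strong as hits; many hits fall short of the cut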
# Target sequence (P11940 whole entry, looked up): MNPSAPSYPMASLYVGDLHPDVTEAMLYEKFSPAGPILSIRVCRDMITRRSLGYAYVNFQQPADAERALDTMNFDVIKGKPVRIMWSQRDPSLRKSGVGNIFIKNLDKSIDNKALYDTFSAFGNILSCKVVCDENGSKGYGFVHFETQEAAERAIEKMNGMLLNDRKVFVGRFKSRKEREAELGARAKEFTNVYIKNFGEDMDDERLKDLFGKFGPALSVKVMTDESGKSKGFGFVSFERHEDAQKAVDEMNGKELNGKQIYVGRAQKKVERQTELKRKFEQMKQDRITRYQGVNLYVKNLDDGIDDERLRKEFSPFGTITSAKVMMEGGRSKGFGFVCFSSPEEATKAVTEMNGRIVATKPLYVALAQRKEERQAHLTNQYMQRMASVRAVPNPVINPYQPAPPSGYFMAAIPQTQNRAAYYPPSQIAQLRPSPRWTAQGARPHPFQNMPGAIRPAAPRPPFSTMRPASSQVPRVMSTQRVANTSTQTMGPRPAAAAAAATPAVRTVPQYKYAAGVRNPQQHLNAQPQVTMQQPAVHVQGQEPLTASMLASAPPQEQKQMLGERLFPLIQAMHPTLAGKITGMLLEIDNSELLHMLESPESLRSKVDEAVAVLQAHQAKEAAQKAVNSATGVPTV
# MT1-MMP act inh RFP = recorded beside MT1-MMP act inh, whose call it bears; RFP signal change, %; measured here: RFP expression control read;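 0 = vehicle wells; hits needed this value within 50% of zero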
# Numbers without * were called inactive; i = inactive; ? = inconclusive; · = not tested or not shown.
# Start of the listing, in advance (7 entries):
SMILES,Yeast UUG start,CSC inhib,MT1-MMP act inh,MT1-MMP act inh RFP,eIF4H FP inh,Rce1 inh,HIV Env fusion,PABP FP inh
CC(CNC(=O)CCn1ccc2cc(S(=O)(=O)N3CCCC3)ccc21)c1ccccc1 (stereo unspecified),6,-11,4,0,0,i,24,-5
CNc1nnc(SCC(=O)c2c(N)n(C3CC3)c(=O)[nH]c2=O)s1,-11,·,3,1,·,·,3,·
COCCN(CCOC)C(=S)Nc1ccccc1Cl,·,2,4,3,-5,i,0,12
CCCCN1C(=O)C(=O)N(CC(=O)Nc2cc(OCC)c(N3CCOCC3)cc2OCC)C1=O,-8,7,-1,3,-6,i,9,-6
O=[N+]([O-])c1ccccc1/C=N/OCc1ccccc1,-13,0,-2,-3,-14,i,-89,9
COc1ccc(NC(=O)c2cccnc2C(=O)O)c(OC)c1,-10,-8,8,8,6,i,-17,11
O=c1c2ccccc2c(-c2ccc(Cl)cc2)nn1-c1ccccc1,·,1,-8,-5,8,i,9,6

# The listing, from the start:
SMILES,Yeast UUG start,CSC inhib,MT1-MMP act inh,MT1-MMP act inh RFP,eIF4H FP inh,Rce1 inh,HIV Env fusion,PABP FP inh
CC(CNC(=O)CCn1ccc2cc(S(=O)(=O)N3CCCC3)ccc21)c1ccccc1 (stereo unspecified),6,-11,4,0,0,i,24,-5
CNc1nnc(SCC(=O)c2c(N)n(C3CC3)c(=O)[nH]c2=O)s1,-11,·,3,1,·,·,3,·
COCCN(CCOC)C(=S)Nc1ccccc1Cl,·,2,4,3,-5,i,0,12
CCCCN1C(=O)C(=O)N(CC(=O)Nc2cc(OCC)c(N3CCOCC3)cc2OCC)C1=O,-8,7,-1,3,-6,i,9,-6
O=[N+]([O-])c1ccccc1/C=N/OCc1ccccc1,-13,0,-2,-3,-14,i,-89,9
COc1ccc(NC(=O)c2cccnc2C(=O)O)c(OC)c1,-10,-8,8,8,6,i,-17,11
O=c1c2ccccc2c(-c2ccc(Cl)cc2)nn1-c1ccccc1,·,1,-8,-5,8,i,9,6
Cc1ccc(C)n1-c1ccc(C(=O)NN)s1,-7,4,4,3,-6,i,3,13
Cc1ccc(-n2c(O)c(C=Nc3ccc4c(c3)OCO4)c3ccccc3c2=O)cc1C,·,-9,-19,0,7,i,-21,14
CC(=O)Nc1ccc(S(=O)(=O)NNC(=O)COc2ccc(Cl)cc2Cl)cc1,-2,-9,7,6,-2,i,-3,9
COCCN1CCN(C(=O)c2ccc3c(c2)S(=O)(=O)c2ccccc2C3=O)CC1,·,-8,·,·,·,i,12,·
O=C(CNC(=O)c1ccco1)OCC(=O)c1ccc([N+](=O)[O-])cc1,-19,-1,-6,1,-2,i,18,-1
CCOC(=O)c1c(-c2ccccc2)csc1NC(=O)c1ccc(N2C(=O)CCC2=O)cc1,-20,1,3,0,-9,i,·,-7
Nc1ccccc1C(=O)NCc1ccccc1,7,-5,0,0,8,i,·,14
O=C1C[C@@H]2c3c(cccc3CN1Cc1ccccc1F)C[C@@H](O)[C@H]2O,-4,·,4,4,·,·,-23,·
COc1ccccc1NS(=O)(=O)c1ccc(C(=O)NCc2ccc(S(N)(=O)=O)cc2)cc1,13,2,5,-2,·,·,-5,·
CCOC(CNC(=O)c1cccc([N+](=O)[O-])c1)OCC,-8,2,-1,4,0,i,11,2
O=C(CSc1nnc(COc2ccccc2)o1)Nc1ccc(F)cc1,·,-1,1,2,-5,i,6,-2
Cc1ccccc1CNC(=O)c1csc([C@@H]2O[C@H](CO)[C@@H](O)[C@H]2O)n1,-12,·,3,5,·,·,-27,·
O=S(=O)(CCc1nnc(-c2ccccc2)o1)c1ccc2ccccc2c1,23,-12,3,4,7,i,·,-4
CCCCn1c(N)c(N(CCOC)C(=O)COC(=O)CCOc2ccc(C)cc2)c(=O)[nH]c1=O,-4,-17,-4,1,·,·,·,·
Cc1c(N=C2N=C(NC(=O)Nc3ccc(Cl)cc3)c3ccccc32)c(=O)n(-c2ccccc2)n1C,·,·,-19,-7,35,i,-3,-10
O=C(CN1C(=O)c2cccc3cccc(c23)C1=O)N1CCOCC1,·,-8,3,4,13,i,6,3
O=C(COc1ccc(Cl)cc1)Nc1nc(-c2ccc(S(=O)(=O)N3CCOCC3)cc2)cs1,4,28,5,-3,-9,i,-35,-1
CCCCCCCCC(=O)N/N=C/c1ccccn1,-11,20,1,-1,-9,i,·,6
COc1ccc(-c2noc(CN(C)Cc3ccccc3)n2)cc1,-15,7,2,1,-6,i,-4,-5
CCC(C)Nc1nc2c(c(=O)[nH]c(=O)n2C)n1CCOc1ccccc1 (stereo unspecified),-4,3,1,-1,4,i,-10,-4
O=C(NCCSc1ccccc1)c1ccccc1Cl,·,-2,2,-1,2,i,-48,-9
COc1cccc(NC(=O)c2nnn(CCc3ccccc3)c2N)c1,-21,10,-1,-4,-1,i,-63,7
CCOc1ccc(C(=O)Cn2cnc3ccccc3c2=O)cc1,2,-8,4,3,-2,i,-24,2
CC(C)(C)NC(=O)C(c1cccs1)N(Cc1ccco1)C(=O)c1csnn1 (stereo unspecified),-9,8,-5,1,0,i,10,4
CN1CCN(CCCCOc2ccccc2-c2ccccc2)CC1,·,41,-1,-2,23,i,7,24
O=C(Nc1cc(=O)[nH]c2nc(-c3ccccc3)nn12)c1ccccc1Cl,-26,5,7,-3,34,i,17,12
O=C(COc1ccccc1C(=O)Nc1ccccc1)c1ccc(Br)cc1,·,10,0,2,-7,i,-3,-1
Cn1/c(=N/N=C/c2ccccn2)sc2ccccc21,·,·,3,1,-2,·,-120,-3
C(/C=C/c1ccccc1)=N/N1CCN(c2ccccc2)CC1,-18,-11,-1,-6,-6,i,-85,-7
CC(=O)Nc1cc(-c2ccccc2)cn2c(-c3ccc(F)c(Cl)c3)cnc12,-12,·,-8,2,·,·,-20,·
CC(Oc1ccccc1)C(=O)N1CCN(S(=O)(=O)c2ccc(OC(F)(F)F)cc2)CC1 (stereo unspecified),4,·,-1,-1,·,·,23,·
c1ccn2c(CNc3ncnc4sccc34)nnc2c1,-7,7,-1,0,4,i,11,-9
O=C(NC1CCCCC1)c1cc([N+](=O)[O-])ccc1N1CCOCC1,·,4,2,0,-8,i,10,-2
CCOC(=O)N1CCC(NC(=O)C2CCN(c3nc(-c4ccc(OC)cc4)no3)CC2)CC1,-7,0,7,-12,-6,i,34*,-7
N=C1C(c2nc3ccccc3s2)=C(O)CN1Cc1ccco1,0,6,1,-3,-3,i,-118,4
N#Cc1ccc(N2C(=O)[C@@H]3C(C(=O)c4cnccn4)=NN[C@@H]3C2=O)cc1,-16,-8,-3,-1,3,·,2,19
Cc1ccc(/C=N/NC(=O)C(C)Oc2ccccc2[N+](=O)[O-])s1 (stereo unspecified),-1,-11,-8,1,9,i,-22,-2
COc1cc(/C=C/C(=O)OCc2cn3cc(Cl)ccc3n2)ccc1O,·,66,-8,-8,-11,i,-14,-6

# A different layout for four compounds above.
mol | Yeast UUG start | CSC inhib | MT1-MMP act inh | MT1-MMP act inh RFP | eIF4H FP inh | Rce1 inh | HIV Env fusion | PABP FP inh
N=C1C(c2nc3ccccc3s2)=C(O)CN1Cc1ccco1 | 0 | 6 | 1 | -3 | -3 | i | -118 | 4
N#Cc1ccc(N2C(=O)[C@@H]3C(C(=O)c4cnccn4)=NN[C@@H]3C2=O)cc1 | -16 | -8 | -3 | -1 | 3 | · | 2 | 19
Cc1ccc(/C=N/NC(=O)C(C)Oc2ccccc2[N+](=O)[O-])s1 (stereo unspecified) | -1 | -11 | -8 | 1 | 9 | i | -22 | -2
COc1cc(/C=C/C(=O)OCc2cn3cc(Cl)ccc3n2)ccc1O | · | 66 | -8 | -8 | -11 | i | -14 | -6

# Other compounds follow:
SMILES,Yeast UUG start,CSC inhib,MT1-MMP act inh,MT1-MMP act inh RFP,eIF4H FP inh,Rce1 inh,HIV Env fusion,PABP FP inh
O=C1N[C@H](Cc2c[nH]c3ccccc23)COC(=O)[C@H](Cc2ccc(F)cc2)C/C=C\C[C@H]1CC(=O)N(CCO)Cc1ccccc1,-16,36,-4,1,·,·,-87,·
COc1ccccc1CC(=O)c1ccc(OCc2ccccc2)cc1,-15,16,0,0,·,i,21,·
COc1ccc(NC(=O)COC(=O)C2C3CC4OC(=O)C2C4C3)cc1 (stereo unspecified),-16,-9,0,2,-10,·,2,0
CCOc1ccc(NC(=O)CN2C(=O)C(C)SC(C)C2=O)cc1 (stereo unspecified),-21,-11,-1,2,-2,i,-2,28
O=C(NCCc1ccc(Cl)cc1)c1ccc(S(=O)(=O)N2CCCC2)cc1,-6,12,4,0,·,i,1,·
Cc1ccccc1CN1CCC(n2nccc2NC(=O)c2ccc3c(c2)OCO3)CC1,-7,-6,0,3,-2,i,7,-6
Cc1cc2c(cc1S(=O)(=O)CCC(=O)N1CC(C)CC(C)C1)OCC(=O)N2 (stereo unspecified),-8,7,-1,2,-12,i,10,-3
CN(C)S(=O)(=O)Oc1ccc(C(=O)Nc2cccc(C(F)(F)F)c2)cc1,·,51,3,-23,6,i,19,35
COc1cc(F)cc(-c2ccc3c(c2)c(-c2cccs2)c(-c2cc(OC)cc(OC)c2)n3C)c1,-17,?,-9,-7,·,·,23,·
COc1ccc(C(CC(=O)N2CCCC(C)C2)c2c(O)cc(OC)cc2OC)cc1 (stereo unspecified),-6,-11,-3,-1,-4,i,-5,-6
CS(=O)(=O)N(CCc1ccccc1)CC(=O)N1CCCC1,·,-1,0,0,-4,i,-3,-4
CN(C(=O)COC(=O)c1ccccc1Cc1ccccc1)c1c(N)n(Cc2ccccc2)c(=O)[nH]c1=O,·,-2,-11,-11,·,i,-165,·
Nc1cccc(C(=O)OCC(=O)c2ccccc2)c1,·,3,2,2,1,i,-11,-3
COc1ccc(-n2nnnc2/C=C\Nc2ccc(C)cc2)cc1,-15,4,1,-2,-3,i,-2,2
Clc1cccc(Nc2ncnc3c2cnn3-c2ccccc2)c1,-6,56,-6,-13,3,i,-29,11
Cc1ccc(Br)cc1S(=O)(=O)Nc1cccnc1,-1,-5,-3,-10,-3,i,-5,6
COc1ccc(S(=O)(=O)NCC2CCCN(C(=O)c3occc3C)C2)cc1 (stereo unspecified),·,9,-1,1,-5,i,-3,-7
CC(=O)Nc1cc(-c2ccccc2N(C)C)cn2c(-c3ccccc3)cnc12,-19,·,-7,-1,·,·,-6,·
COc1ccccc1-n1c(CNc2ccc(F)cc2)nnc1SCC(=O)Nc1cc(C)on1,-7,3,5,3,2,i,·,1
CCOc1ccc(NC(=S)/C(=C(\[O-])c2ccc(C)c([N+](=O)[O-])c2)[n+]2ccccc2)cc1,-12,1,-4,-12,9,i,·,10
O=C(NC1CC1)c1ccc(CS(=O)c2ccccc2)o1 (stereo unspecified),-11,·,0,6,3,i,7,8
CSc1ccccc1NC(=O)Nc1ccc(Cl)cc1,·,13,2,-9,-7,i,-32,-10
O=C(/C=C/c1ccccc1)CC(O)(c1ccccc1)C(F)(F)F (stereo unspecified),-5,·,-21,-30,-12,i,·,4

# High-throughput results deposited in PubChem by several laboratories.

# This is a random part of the collection, and some 3% of all compounds hit somewhere here.
